Mtb growth – Confirmatory growth inhibition assay against Mycobacterium tuberculosis H37Rv, potency (AID 1949); one-dose inhibition, % at 10 µg/mL; IC50 in µg/mL for titrated hits; actives 1.6% (n = 100,000); most inactive calls were filed without a number and no value below 0 was filed;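 active = confirmed in a dose series; inconclusive = about 50% or more but not retested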;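 also: bacteria grown 7 days with compound before Alamar blue readout; 0% = untreated bacteria and 100% = reference antibiotic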
* = called active by the depositor; i = inactive; ? = inconclusive. Only part of the results is shown; the hit share may differ from the screen's.

SMILES | Mtb growth
N#CC1=C(SCC(=O)Nc2cccc3ccccc23)NC(=O)CC1c1ccco1 (stereo not drawn) | i
CC(=O)Oc1ccc2c(=O)c(-c3ccccc3Cl)c(C)oc2c1 | i
O=C(COc1ccccc1F)NC12CC3CC(CC(C3)C1)C2 | 34%
CCOC(=O)c1c(NC(=O)COc2ccc(C(C)CC)cc2)sc(C(=O)OC)c1C (stereo not drawn) | i
COc1ccc2c(Cl)c(C(=O)Nc3ccc(S(=O)(=O)N4CCCCC4)cc3)sc2c1 | 3%
COCCCNCCOCCOc1cccc(C)c1C | i
O=C1c2cc3ccccc3c(-c3ccccc3)c2C(=O)N1CCO | i
Cc1cc(C)nc(Nc2cc([N+](=O)[O-])ccc2C)n1 | i
Cc1sc(NC(=O)c2ccco2)c(C#N)c1C | i
CC1=C(C(=O)OCC2CCCO2)C2(O)C(=O)c3ccccc3C2(O)N1 (stereo not drawn) | i
O=C(NC(=S)Nc1cccc(C(F)(F)F)c1)c1ccccc1I | i
O=C(CSc1ccccc1)Nc1ccccc1NC(=O)CSc1ccccc1 | i
CC(=O)c1cccc(NC(=O)c2cc(C)cc(C)c2)c1 | i
O=C(Nc1cccc(C(F)(F)F)c1)Nc1cccc(S(=O)(=O)N2CCOCC2)c1 | i
CC(C)c1ccc(OCC(=O)N2CCN(c3cccc(Cl)c3)CC2)cc1 | 6%
O=C(Nc1cccnc1)c1c(F)c(F)c(F)c(F)c1F | i
COc1cc(/C=C(\NC(=O)c2cc(OC)c(OC)c(OC)c2)C(=O)NC(C(=O)O)c2ccccc2)cc(OC)c1OC (stereo not drawn) | i
CCC(=O)Nc1ccc(Cl)c(NC(=S)NC(=O)c2ccccc2[N+](=O)[O-])c1 | i
COCCNCCOCCOc1ccc(Cl)c(Cl)c1 | i
COc1ccc(C(=O)Nc2cccc(NC(=O)c3ccc(OC)cc3OC)n2)c(OC)c1 | 5%
O=C(Nc1ccccc1C(=O)N1CCOCC1)c1ccccc1F | i
O=C(NCC1COc2ccccc2O1)c1ccc(NC(=O)c2ccco2)cc1 (stereo not drawn) | 1%
N/C(=N\OC(=O)CCC1CCCC1)c1ccc(Cl)cc1 | i
CCCC(=O)N1CCN(c2ccc(NC(=O)c3cccc(C)c3OC)cc2)CC1 | i
CC(=O)NS(=O)(=O)c1ccc(NC(=O)COc2ccc(C(C)(C)C)cc2)cc1 | i
CCCCn1c2ccc(Br)cc2c2nc3ccccc3nc21 | i
COc1ccc(C2CC(c3ccccc3O)=NN2C(C)=O)cc1OC (stereo not drawn) | i
Cc1ccc(C2=NN=C(NC(=O)CSc3nnc(C)s3)SC2)cc1 | i
COc1ccc(-c2nnc3c4ccccc4c(C)nn23)cc1 | ?
Cc1cc(NC(=O)c2ccc(Cl)c(Cl)c2)cc(C)c1OCC(=O)N1CCOCC1 | i
COc1ccc(-n2c(SCc3ccc(Cl)c(Cl)c3)nnc2-c2ccncc2)cc1 | 21%
Cc1onc(-c2c(F)cccc2Cl)c1C(=O)Nc1sc(C)c(-c2ccccc2)c1C(N)=O | 0%
COc1ccc(CNC(=O)C2CCCN2S(=O)(=O)c2ccc3ccccc3c2)cc1 (stereo not drawn) | i
Cc1nc(=O)c(-c2ccccc2)c(C)n1CCO | i
CCOC(=O)C1Cn2c(nc3c(c2=O)C(C)(CC)Cc2ccccc2-3)S1 (stereo not drawn) | i
O=C(OCC(=O)c1cccs1)c1ccccc1 | i
CCCCn1c(-c2ccc(Br)cc2)nc(=S)c2c1CCCC2 | i
O=C(COc1ccc(C(=S)N2CCCC2)cc1)N1CCCC1 | i
COC(=O)Nc1cnn(Cc2ccc(Cl)cc2)c1 | i
CC1CCN(CCOCCOc2cccc(C(C)C)c2)CC1 | i
O=C1C2C3C=CC(C2C(=O)N1Cc1ccc(F)cc1)C1C(=O)N(Cc2ccc(F)cc2)C(=O)C31 (stereo not drawn) | i
COc1cc2c(cc1NC(=O)COc1ccc(Cl)cc1)oc1ccccc12 | 2%
COc1ccc(NC(=O)COc2ccccc2C(C)C)c(OC)c1 | 2%
Cc1ccc(C(=O)CC2(O)C(=O)N(Cc3cccc(F)c3)c3ccccc32)c(C)c1 (stereo not drawn) | i
CS(=O)(=O)N(CC(=O)NCc1ccco1)c1cc(Cl)c(Cl)cc1Cl | i
O=C(CCSc1ccccc1)NC12CC3CC(CC(C3)C1)C2 | i
CC(=O)Nc1nc2nccc(-c3ccccc3)n2n1 | i
O=C(COc1ccc2ccccc2c1Br)Oc1ccccc1Cl | i
C#CCn1c(-c2ccc(OC)cc2)nc2ccccc21 | i
CC1CCCN(CCOc2cccc(C(F)(F)F)c2)C1 (stereo not drawn) | i
Following part.
SMILES | Mtb growth
OCc1ccccc1CNC1CCCCC1 | i
Cc1cccc(C)c1NC(=S)Nc1ccc(F)cc1 | i
COC(=O)CN(c1cc(C)ccc1OC)S(=O)(=O)c1ccc(C)cc1 | i
CCc1ccc(C2C3=C(CC(C)(C)CC3=O)NC3=C2C(=O)c2ccccc23)cc1 (stereo not drawn) | 4.4µg/mL*
Cc1cccc(C)c1N1C(=O)CCC1=O | 1%
O=C(Oc1ccnc2cc(Cl)ccc12)N1CCCCC1 | 0%
O=C(CSc1nc2ccccc2c(=O)[nH]1)NCc1ccccc1 | 0.28µg/mL*
CCNC(=O)c1sc2cccc(Cl)c2c1Cl | i
OC1(c2cccc(C(F)(F)F)c2)CCN(C(=S)Nc2ccccc2)CC1 | i
CCOC(=O)C1=C(C)Nc2nnnn2C1c1cccs1 (stereo not drawn) | 6%
Cc1cc(=O)oc2cc(NC(=S)Nc3ccc(F)c(Cl)c3)ccc12 | i
CC(NC(=O)COc1c(Cl)cc(Cl)cc1Cl)c1ccccc1 (stereo not drawn) | 1%
COc1cc(CNC(=O)c2ccccc2SCc2ccccc2)cc(OC)c1OC | i
Cc1cc(C)n2c(SCC(=O)c3ccccc3)nnc2n1 | i
CN1CCC(N(C)C(=O)NC2CCCCC2)CC1 | i
C=CSc1sc(Cl)c(N(C)C)c1[N+](=O)[O-] | i
CC(Oc1ccccc1)C(=O)Nc1ccc(OCC(=O)O)cc1 (stereo not drawn) | i
Cc1cc(Br)ccc1OCCCN1CCOCC1 | i
Cc1ccc(Nc2nc3ccccc3nc2NS(=O)(=O)c2cccc(-n3cnnn3)c2)cc1 | i
CC(=O)Nc1ccc(NC(=O)CN(c2cccc(C(F)(F)F)c2)S(C)(=O)=O)cc1 | i

Filtered by structure: the compounds so far with four or more nitrogen atoms
SMILES | Mtb growth
Cc1cc(C)nc(Nc2cc([N+](=O)[O-])ccc2C)n1 | i
CCC(=O)Nc1ccc(Cl)c(NC(=S)NC(=O)c2ccccc2[N+](=O)[O-])c1 | i
Cc1ccc(C2=NN=C(NC(=O)CSc3nnc(C)s3)SC2)cc1 | i
COc1ccc(-c2nnc3c4ccccc4c(C)nn23)cc1 | ?
COc1ccc(-n2c(SCc3ccc(Cl)c(Cl)c3)nnc2-c2ccncc2)cc1 | 21%
CC(=O)Nc1nc2nccc(-c3ccccc3)n2n1 | i
CCOC(=O)C1=C(C)Nc2nnnn2C1c1cccs1 (stereo not drawn) | 6%
Cc1cc(C)n2c(SCC(=O)c3ccccc3)nnc2n1 | i
Cc1ccc(Nc2nc3ccccc3nc2NS(=O)(=O)c2cccc(-n3cnnn3)c2)cc1 | i

New compounds follow:
SMILES | Mtb growth
COc1ccc(-c2c(C)nn(-c3ccccc3)c2N)cc1 | i
COc1cccc2cc(C(=O)C3=C(O)C(=O)N(CCCN4CCOCC4)C3c3cccnc3)oc12 (stereo not drawn) | i
COC(=O)c1ccc(C)c(NS(=O)(=O)c2c(C)cc(C)cc2C)c1 | i
Cc1nc(-c2ccc(C(=O)Nc3ccc(Cl)cc3Cl)cc2)cs1 | 0%
O=C(CSc1nc2ccc(NC(=O)c3ccccc3Br)cc2s1)NC1CCCCC1 | i
CC1=C(C(=O)Nc2ccccc2F)C(c2ccccc2Br)NC(=S)N1 (stereo not drawn) | i
COC(=O)Nc1nc2ccc([N+](=O)[O-])cc2s1 | 0%
CC12CCC(C(=O)N3CCCC3)(OC1=O)C2(C)C (stereo not drawn) | i
CC1(C)CC(NC(=O)c2ccncc2)CC(C)(C)N1O | i
Cc1cc(Cl)ccc1NC(=S)NCCO | i

Sorted by length of the SMILES (highest first): some entries from above
SMILES | Mtb growth
CC(=O)Oc1ccc2c(=O)c(-c3ccccc3Cl)c(C)oc2c1 | i
COc1ccc(C2CC(c3ccccc3O)=NN2C(C)=O)cc1OC (stereo not drawn) | i
CC1CCN(CCOCCOc2cccc(C(C)C)c2)CC1 | i

Going on with the list:
SMILES | Mtb growth
COc1ccc(CN2C(=O)C(O)(CC(=O)c3ccc(C)o3)c3ccccc32)cc1OC (stereo not drawn) | i
COc1ccc(C(=O)Nc2ccc(N3CCN(C)CC3)cc2)cc1Cl | i
CCOC(=O)CCn1[nH]c(=O)c2ccccc2c1=O | i
Cc1nn(C(=O)c2cccnc2)c(C)c1Sc1ccccc1 | 3%
Cc1nnc2ccc(N/N=C/c3ccc(O)cc3)nn12 | i
COc1ccc2nc(SCc3cccc(C)c3)nc(C)c2c1 | i
O=C(C1CCCN1S(=O)(=O)c1ccc(Cl)cc1)N1CCOCC1 (stereo not drawn) | 20µg/mL*
O=C(Nc1nc2ccc(S(=O)(=O)N3CCCCC3)cc2s1)c1cccnc1 | i
COC(=O)c1ccc(NC(=O)c2oc3ccc(C)cc3c2C)cc1 | i
CC(C)CC(NS(=O)(=O)c1ccc2[nH]c(=O)c(=O)[nH]c2c1)C(=O)O (stereo not drawn) | i
Cc1cc(I)cnc1NC(=O)c1ccccc1[N+](=O)[O-] | i
NC1=NC(=O)CC(C(=O)Nc2cc(Cl)cc(Cl)c2)S1 (stereo not drawn) | 3%
CCCC1=C(C(=O)OCC)C(c2cccc([N+](=O)[O-])c2)NC(=O)N1C (stereo not drawn) | i
C=CCn1c(C(C)NC(=O)c2cccc(C)c2)n[nH]c1=S (stereo not drawn) | i
O=C(O)C1CCCCC1C(=O)Nc1ccc(C(=O)N2CCOCC2)cc1 (stereo not drawn) | i
CC(Oc1ccc2c(c1)OCO2)C(=O)NNC(=S)NCc1ccco1 (stereo not drawn) | i
COc1ccc(S(=O)(=O)NCc2ccccc2C)cc1OC | i
Cc1ccc(SC(C)C(=O)Nc2cc(Cl)cc(Cl)c2)cc1 (stereo not drawn) | 4%
C=CCNC(=S)N1CCc2cc(OC)c(OC)cc2C1c1ccccc1 (stereo not drawn) | 1%
O=C(CS(=O)(=O)Cc1ccccc1)NCc1ccccc1Cl | i
O=C(c1ccco1)N1CCN(C2CC(=O)N(c3ccc(Cl)c(C(F)(F)F)c3)C2=O)CC1 (stereo not drawn) | i
CCOC(=O)Nc1ccc(S(=O)(=O)Nc2cc(C)on2)cc1 | i
O=C(NC1CCCCCC1)c1cccc(C(=O)NC2CCCCCC2)n1 | 5%
CCOC(=O)c1cc(-c2ccccc2)sc1NC(=S)Nn1cnnc1 | i
Brc1ccc(-c2cn3c(n2)SCC3)cc1 | 2%
Cc1ccc([N+](=O)[O-])cc1NC(=O)C1C(C)(C)C1(C)C | 1%
COc1c(C)cc(Br)cc1C(=O)NCc1ccccc1 | i
CSc1ccccc1C(=O)NCCOc1cc(C)ccc1C(C)C | 42%
CCOc1ccccc1NC(=O)Nc1cc(OC)ccc1OC | i
Fc1ccc(C2=CC(c3ccc(Br)o3)n3ncnc3N2)cc1 (stereo not drawn) | i

An excerpt of these results, in markdown:
| smiles | Mtb growth |
| --- | --- |
| O=C(Oc1ccnc2cc(Cl)ccc12)N1CCCCC1 | 0% |
| COc1ccc2nc(SCc3cccc(C)c3)nc(C)c2c1 | i |
| Cc1sc(NC(=O)c2ccco2)c(C#N)c1C | i |
| CCOC(=O)CCn1[nH]c(=O)c2ccccc2c1=O | i |

The results go on:
SMILES | Mtb growth
Cc1ccc(NC(=O)c2ccccc2C(F)(F)F)cc1Cl | i
Clc1ccc(OCC#CCN2CCc3ccccc3C2)cc1 | i
CCCC1=C(C(=O)OCC)C(c2ccc(OC3CCCC3)c(OC)c2)NC(=S)N1 (stereo not drawn) | 5%
CC(=O)Oc1cc2c(C(=O)O)c(C(C)(C)C)oc2cc1Br | 6%
COc1ccccc1-c1cc(C(F)(F)F)n2ncc(C(=O)NCc3ccco3)c2n1 | i
CCc1ccc(CN2CCCC(C(=O)N3CCCCC3)C2)cc1 (stereo not drawn) | i
Cc1cc(C)c(S(=O)(=O)NCC(=O)Nc2ccc(Cl)cc2)c(C)c1 | i
CC(C)(C)c1ccc(C(=O)N2CCC(C(=O)NCCc3ccccc3)CC2)cc1 | i
O=C(O)c1ccc(-n2[nH]c(-c3ccccc3)cc2=O)cc1 | 1%
CC1(C)Cc2c(c(N3CCOCC3)nc3sc(-c4ccc(C(=O)O)o4)c(N)c23)CO1 | i
C=C(C)CSc1nnc2n(-c3ccccc3)c(=O)c3c(n12)-c1ccccc1CC31CCCC1 | 3%
CCOC(=O)Nc1nc2ccc(OCC)cc2s1 | i
CN(C)C1(c2nnnn2CCOC(=O)Nc2ccc(Cl)cc2)CCCCC1 | 0%
Cc1ccc(CN(c2ccc(C(=O)N3CCc4ccccc4C3)cc2)S(C)(=O)=O)cc1 | i
CCOC(=O)N1CCN(C(=O)c2ccc(C)c(S(=O)(=O)Nc3ccccc3)c2)CC1 | i
Cc1ccc(NS(=O)(=O)c2ccc(CCC(=O)O)cc2)cc1 | i
CN(C)CC(O)C1CCOC(C)(C)C1 (stereo not drawn) | 1%
Cc1ccccc1CNC(=O)c1ccc(C)c([N+](=O)[O-])c1 | i
COc1ccc(CCNC(=S)Nc2cccc(Cl)c2C)cc1 | i
Cc1ccc(C(C)C)c(OC(=O)CSc2ccc(S(C)(=O)=O)cc2[N+](=O)[O-])c1 | i
CCOC(=O)NCc1ccc(Cl)c(Cl)c1 | 6%
CC(C)OC(=O)N(C)c1ccc(C(O)(C(F)(F)F)C(F)(F)F)cc1 | 8%
Cc1cc(C)nc(SCC(=O)Nc2cccc(C)c2C)n1 | i
Cc1ccc(C(C)C)c(OCCNS(C)(=O)=O)c1 | i
O=C(O)c1cc([N+](=O)[O-])ccc1N1CCN(CCO)CC1 | i

Source: PubChem BioAssay (Southern Research Institute)
